Bioassay records (PubChem)
NS1 inh: influenza NS1 inhibition; S. cerevisiae slowed by influenza A NS1, growth recovery by OD600; Potency, µM (series often up to 46.1 µM), for inactives: at the highest dose activity, positive = more growth; AID 2326; actives 0.4% (n = 270,000); active means well fitted rising curve with a large enough effect; inconclusive means small, poorly fitted or top-dose-only effect; inactive means no such curve, though single readings can be large or run the other way; further: nearly all actives have a fitted effect of over 50% in size
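OD600 was taken as the measure of yeast growth restored by compound in an NS1-expressing S. cerevisiae strain. Cells had been washed out of glucose medium and diluted 1:100 into galactose -URA medium, pH 6.0.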
LASV entry inh: inhibitors of Lassa virus binding or cell entry | AID 540256 | actives 1.2% (n = 300,000) | Potency, µM (top dose mostly 37.9 µM), inactives show top-dose activity change, negative = inhibition, most hits filed as inhibitors | Lassa virus pseudotype entry inhibition, cell reporter; control for the full effect not named in the record; active means well fitted inhibition curve with a large enough effect; inconclusive means small, poorly fitted or top-dose-only effect, or effect the other way; inactive means flat fitted curve, though single readings scatter; tested in HEK293 cells; further: on the % scale 0 is the no-effect control and ±100 the full control effect; nearly all actives have a fitted effect of over 50% in size; luciferase read-out
2A StopGo: FMDV 2A StopGo reporter, luciferase signal; human cells with a luciferase reporter of 2A StopGo recoding; control for the full effect not named in the record; Potency, µM (doses to about 57.9 µM), for the others: at the top dose signal change, negative = less light; actives 1.2% (n = 410,000); AID 1159524; active = well fitted falling curve with a large enough effect; inconclusive = small, poorly fitted or top-dose-only effect; inactive = no such curve, though single readings can be large or run the other way; tested in HEK293T cells; further: on the % scale 0 is the no-effect control and ±100 the full control effect; nearly all actives have a fitted effect of over 45% in size; luciferase light after 4 h
Marburg entry inh: Marburg virus entry inhibition; Potency, µM (doses to about 37.8 µM), inactives show at the highest dose activity change, negative = inhibition, usual class: inhibitors; Marburg virus pseudotyped entry inhibition, cell reporter; control for the full effect not named in the record; about a third of the inactives were read at about 46 µM; actives 1.8% (n = 300,000); active = well fitted inhibition curve with a large enough effect; inconclusive = small, poorly fitted or top-dose-only effect, or effect the other way; inactive = flat fitted curve, though single readings scatter; tested in HEK293 cells; about a fifth of its hits are not listed in these tables; further: on the % scale 0 is the no-effect control and ±100 the full control effect; luciferase read-out
Cruzain inh Det: blocks cruzain activity in presence of Triton detergent. purified cruzain, Z-FR-AMC fluorescence, 0.01% Triton. P25779. Potency, µM, inactives show max response, negative = inhibition, actives largely listed as inhibitors. actives 0.43% (n = 200,000);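 further: plate controls were neutral wells for no effect and buffer without enzyme for full effect; nearly all actives have a fitted effect of over 40% in size; top concentration of the series not given in the record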
Target sequence (P25779 123-467 limits assumed): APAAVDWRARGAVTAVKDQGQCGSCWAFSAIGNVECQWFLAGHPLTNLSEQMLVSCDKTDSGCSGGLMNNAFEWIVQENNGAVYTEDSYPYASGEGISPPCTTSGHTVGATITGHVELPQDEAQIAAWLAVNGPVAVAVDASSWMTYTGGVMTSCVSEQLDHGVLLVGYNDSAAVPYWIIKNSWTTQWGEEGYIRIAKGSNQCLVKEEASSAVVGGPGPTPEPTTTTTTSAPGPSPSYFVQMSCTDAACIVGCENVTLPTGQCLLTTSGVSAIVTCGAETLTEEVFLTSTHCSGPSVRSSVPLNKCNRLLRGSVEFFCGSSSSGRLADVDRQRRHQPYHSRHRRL
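Read-out: AMC fluorescence (360 nm excitation, 450 nm emission), four reads over 2 min, first-to-third difference used. Conditions: cruzain 1.5 nM, Z-FR-AMC 2 uM, pH 5.5 acetate, 5 mM DTT, 0.01% Triton X-100.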
RE007 growth inh: less growth of the S. pombe RE007 Vpr strain; S. pombe RE007 Vpr strain, BacTiter-Glo ATP luminescence, 24 h; control for the full effect not named in the record; Potency, µM (top dose mostly 92.2 µM), inactives show at the highest dose activity change, negative = less growth; actives 0.21% (n = 360,000); active = well fitted falling curve with a large enough effect; inconclusive = small, poorly fitted or top-dose-only effect; inactive = no such curve, though single readings can be large or run the other way;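 further: on the % scale 0 is the no-effect control and ±100 the full control effect; nearly all actives have a fitted effect of over 50% in size; the assay follows cell death caused by Vpr and the record does not say whether a fall means rescue or toxicity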
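Fission yeast strain RE007, carrying one chromosomally integrated HIV-1 vpr copy, was seeded at OD 0.01 in PMG+AL medium with 23 nL pinned compound. After 24 h at 30 °C and 99% humidity, viability was read by BacTiter-Glo luminescence.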
Cruzain noTriton: inhibitors of Trypanosoma cruzi cruzain without detergent | P25779 | purified cruzain, Z-FR-AMC fluorescence, no detergent | Potency, µM, for the others: max response, negative = inhibition, hits mostly inhibitors | actives 2.3% (n = 200,000);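 further: plate controls were enzyme without inhibitor for no effect and buffer without enzyme for full effect; nearly all actives have a fitted effect of over 40% in size; top concentration of the series not given in the record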
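Purified cruzain at 1.5 nM, pre-incubated 15 min with compound at room temperature in 100 mM sodium acetate pH 5.5, 5 mM DTT, 0.00005% Triton X-100. Reaction started with 2 uM Z-FR-AMC; AMC fluorescence increase over 60 s gives rate.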
SARS PLP yeast: blocks SARS-CoV papain-like protease in a yeast assay; Potency, µM (doses to about 32.9 µM), for inactives: at the top dose activity, positive = growth rescue; AID 485353; S. cerevisiae expressing SARS-CoV PLpro, growth rescue; control for the full effect not named in the record; actives 0.19% (n = 330,000); active means well fitted rising curve with a large enough effect; inconclusive means small, poorly fitted or top-dose-only effect; inactive means no such curve, though single readings can be large or run the other way; further: 0% is about no effect; nearly all actives have a fitted effect of over 55% in size; growth read by luminescence after 48 h
* marks the source's active call; other numbers are inactive results; u = inconclusive; x = not tested or not shown; & = joins results of further samples; [ ] = remark or other dose. Unless noted, the call rests on the fitted dose curve; in most records, active means well fitted curve in the direction sought with a large enough effect; inconclusive means small, poorly fitted or top-dose-only effect, or another doubt; inactive means no such curve, though single readings can be large; an effect the other way counts as inactive or inconclusive. Potency means the concentration at half of the fitted maximal effect.

Order of values: NS1 inh | LASV entry inh | 2A StopGo | Marburg entry inh | Cruzain inh Det | RE007 growth inh | Cruzain noTriton | SARS PLP yeast
COc1ccc(C(=O)Nc2ccc(S(=O)(=O)Nc3cc(C)nc(C)n3)cc2)c(OC)c1
    -6% | 1% | 32%[activator] | 9% | 0.9% | 1% | u | -2%
Cc1ccc(NC(=O)CSc2ccccc2NC(=O)c2ccccc2)cc1Cl
    3% | 0% | 46%[activator] | u | -1.7% | -4% | -7% | -10%
O=C(CCN1CCc2ccccc2CC1)c1ccc2c(c1)OCCO2
    -213% | u | 1% | -51% | u | 7.1µM* | 16µM* | -36%
COC(=O)C1=C(NC(=O)c2ccc(C)cc2)CCS1
    -6% | -10% | 3% | 12% | 3.9% | -15% | -5% | 5%
CCOc1ccc(-c2nnc(SCC(=O)Nc3ccc(C)cc3Cl)o2)cc1
    x | 9%[46.1 µM] | 0% | 1%[46.1 µM] | 28µM* | x | u | x
N#Cc1ccc[n+](CC(=O)c2ccc(Cl)cc2)c1
    9% | 22% | 1% | u | x | 17% | x | -3%
COc1ccc(-n2c(SCc3ccc([N+](=O)[O-])cc3)nnc2-c2ccccc2)cc1
    20% | u | u | u | -3.5% | 24% | -8% | 5%
Cn1cnc(S(=O)(=O)N2CCC(C(=O)Nc3ccc(C#N)cc3)CC2)c1
    x | 10%[46.1 µM] | -13% | x | -0.8% | x | -4% | x
O=C(OCC(=O)N1CCCc2ccccc21)c1c(F)cccc1F
    x | 2% | 36%[activator] | u | x | 2% | x | 1%
CCc1nc(N)c(C#N)c(-c2ccc(OC)c(OC)c2)c1C
    -2% | 6% | -10% | 6% | 22% | 15% | -2% | -1%
COC(=O)c1ccc(N2C(=O)Nc3ccccc3N2O)cc1
    2% | 2% | -17% | 3% | x | 6% | x | 0%
O=C(c1cccc([N+](=O)[O-])c1)N1CCCC(C(=O)N2CCCCC2)C1 (stereo unspecified)
    1% | x | -5% | x | x | 13% | x | 2%
COc1ccc(-c2noc(-c3ccc(N4CCN(c5ccccc5)CC4)c([N+](=O)[O-])c3)n2)cc1OC
    x | 11%[46.1 µM] | -13% | 26%[46.1 µM] | -4.6% | x | u | x
Cc1ccc(C)c2[nH]c(=O)c(CN(Cc3ccc4c(c3)OCO4)Cc3nnnn3Cc3ccco3)cc12
    11µM* | u | 8% | u | -1.3% | 10% | -7% | 0%
COc1ccc(OCC(O)CNC(=O)Nc2cc(F)ccc2C)cc1 (stereo unspecified)
    -8% | x | -1% | -2% | x | 2% | x | 0%
Cc1cccc2c(=O)cc(CSc3ccccc3NC(=O)c3cccc(Cl)c3)[nH]c12
    x | -17%[46.1 µM] | -15% | x | 0.7% | x | -18% | x
CCOC(=O)C1(CC2CCCCO2)CCN(C(=O)NCc2ccccc2)CC1 (stereo unspecified)
    -3% | 1% | 2% | 8%[46.1 µM] | x | 5% | x | 0%
O=C(CN1C(=O)CNC1=O)Nc1cccc(C(F)(F)F)c1
    2% | -18% | -14% | 15% | 0.4% | 2% | 10% | 6%
Cc1nc2nc(-c3cccnc3)nn2c(C)c1Cl
    3% | 23% | 17% | 10% | 5.2% | -7% | 2% | 3%
Cc1[nH][nH]c(=O)c1C(c1c(C)[nH][nH]c1=O)c1cn(Cc2ccccc2Cl)c2ccccc12
    6% | u | u | u | -4.9% | 32% | 5% | -8%
O=C(NCCc1ccccc1)C1CC(=O)N(C2CCCCCC2)C1 (stereo unspecified)
    -7% | 22% | x | -7% | 1.8% | 1% | 6% | 1%
COc1ccccc1NC(=O)CNC(=O)CC12CC3CC(CC(C3)C1)C2
    x | 4% | -28% | -13% | x | 3% | x | 1%
O=C(NCC(c1ccco1)S(=O)(=O)c1cccs1)c1ccc(C(F)(F)F)cc1 (stereo unspecified)
    x | -18%[46.1 µM] | 4% | x | -2.2% | x | 10% | x
O=C(CNc1ccc(Br)cc1)NC(=O)NC1CCCCC1
    x | -14% | 13% | 9% | x | -13% | x | -3%
CCn1c(SCC(=O)c2ccccc2)nc2sc3c(c2c1=O)CCN(C)C3
    6% | -3% | -10% | u | x | -9% | x | 1%
CCC(C)NC(=O)c1ccccc1NC(=O)Nc1ccccc1 (stereo unspecified)
    11% | 1% | -3% | 13% | 1.5% | -27% | u | 0%
O=C1CCC(C(=O)N2CCN(c3cnccn3)CC2)CN1CCc1cccc(F)c1 (stereo unspecified)
    -1% | 29%[46.1 µM] | 16% | 15%[46.1 µM] | x | 9% | x | 1%
O=C(N1CCOCC1)N1CCCC(c2nc(-c3cccs3)no2)C1 (stereo unspecified)
    1% | 20%[14.3 µM] | 20% | -3% | 1.0% | -8% | 9% | 1%
OCCn1c(CSc2nc3ccccc3n2CCO)nc2ccccc21
    6% | 6% | x | 1% | -1.8% | 6% | -4% | 2%
CCSc1nnc(COc2ccccc2)n1CC
    -1% | x | -17% | x | x | 4% | x | 1%

Profiles, looked up by structure.
O=C(c1cccc([N+](=O)[O-])c1)N1CCCC(C(=O)N2CCCCC2)C1 (stereo unspecified) is entered as NS1 inh: 1%; LASV entry inh: x; 2A StopGo: -5%; Marburg entry inh: x; Cruzain inh Det: x; RE007 growth inh: 13%; Cruzain noTriton: x; SARS PLP yeast: 2%
O=C(NCC(c1ccco1)S(=O)(=O)c1cccs1)c1ccc(C(F)(F)F)cc1 (stereo unspecified) is entered as NS1 inh: x; LASV entry inh: -18%[46.1 µM]; 2A StopGo: 4%; Marburg entry inh: x; Cruzain inh Det: -2.2%; RE007 growth inh: x; Cruzain noTriton: 10%; SARS PLP yeast: x

(continued)
Order of values: NS1 inh | LASV entry inh | 2A StopGo | Marburg entry inh | Cruzain inh Det | RE007 growth inh | Cruzain noTriton | SARS PLP yeast
Cc1cc(C)cc(C(=O)NCC(=O)N2CCC3(CC2)NCCc2[nH]cnc23)c1
    0% | 7%[46.1 µM] | -1% | -2%[46.1 µM] | x | -5% | x | 1%
COc1cc(C2C3C(C)N(C)C(=O)N(C)C3N(C)C(=O)N2C)ccc1O (stereo unspecified)
    5% | 10% | -14% | -7% | 2.4% | 5% | -5% | -2%
CCOc1ccccc1NC(=S)Nc1ccccc1F
    -1% | 0% | 42%[activator] | -1% | -0.1% | -1% | -5% | u
O=C(O)CNC(=O)C1CCCN1C(=O)CNC(=O)OCc1ccccc1 (stereo unspecified)
    3% | x | -12% | x | x | 8% | x | 1%
COc1ccc(NC(=O)C2Cc3ccccc3N2C(=O)c2ccccc2)c(OC)c1 (stereo unspecified)
    x | -5%[46.1 µM] | 0% | x | 1.0% | x | -4% | x
COc1ccc(S(=O)(=O)NCCS(=O)(=O)N2CCN(c3ccccc3)CC2)cc1C
    x | -4%[46.1 µM] | 0% | x | -1.3% | x | 2% | x
CCN1CCN(c2ncnc3c2cnn3-c2cccc(C)c2)CC1
    x | u | 24% | x | 0.8% | x | -9% | x
CCN(CC(=O)Nc1c(F)cccc1F)C(=O)CCCOc1ccccc1
    x | -11% | -29% | -2% | x | -8% | x | x
Cc1cccc(Nc2ncccc2C(=O)NCc2cccs2)c1C
    -154% | -9% | -10% | 2% | -6.6% | -6% | -1% | -12%
CCCCCOC(=O)Cn1c(N2CCCCCC2)nc2c1c(=O)[nH]c(=O)n2C
    -8% | 0% | -23% | -22% | -0.9% | 2% | -16% | -3%
CC1(C)C2CCC1(C)C1(C2)NC(=O)c2ccccc2O1 (stereo unspecified)
    8% | -29% | -15% | -1% | -2.0% | -5% | 1% | -8%
CN(C)CC1CSCCC1(O)c1ccccc1 (stereo unspecified)
    3% | 14% | -18% | -3% | 1.3% | -14% | 9% | 11%
CC(C)c1ccc(/C=C(\c2nc3ccccc3[nH]2)S(=O)(=O)c2ccccc2)cc1
    -5% | u | 10µM* | u | -5.5% | -5% | -3% | -3%
O=C(NC1=NCCS1)c1cccc(F)c1
    x | 12% | 27% | 1%[46.1 µM] | x | 24% | x | x
Cc1ccc2nc(SCC(=O)N(CC(C)C)c3c(N)n(Cc4ccccc4)c(=O)[nH]c3=O)[nH]c2c1
    -1% | x | -9% | x | x | 5% | x | 0%
Cc1nnc(SCc2ccccc2)n1CC1CCCO1 (stereo unspecified)
    0% | 1% | -6% | -1% | 3.6% | 19% | 11% | 3%
CCOC(=O)c1sc(NC(=O)CC)c(C#N)c1C
    x | -3%[46.1 µM] | -3% | -16%[46.1 µM] | x | 14% | x | 0%
O=C(CN1CCCCC1)Nc1ccccc1
    -3% | 4% | -15% | -19% | 5.1% | -4% | -2% | -2%
CC(C)(C)n1nc(-c2ccc(Cl)cc2)c2c(N)ncnc21
    -81% | u | 15%&-28% | u | -4.1% | -5% | -6% | -25%
CC1CCCCN1C(=O)c1ccc(Br)o1 (stereo unspecified)
    -9% | x | -6% | x | x | -10% | x | 1%
O=c1[nH]nc(C(F)(F)F)c2nnn(Cc3ccccc3Cl)c12
    1% | x | -11% | x | x | 7% | x | 12%
CCc1cc(=O)[nH]c(SCCCF)n1
    x | 12% | -15% | 16%[46.1 µM] | x | 5% | x | 0%
C=CCOC(=O)c1sc(NC(=O)c2ccc(OC)cc2)nc1C
    1% | -10% | 38%[activator] | 3%[46.1 µM] | x | -5% | x | 0%
CC1Cc2ccccc2N1S(=O)(=O)c1cccc(C(=O)N2CC(=O)Nc3ccccc32)c1 (stereo unspecified)
    0% | x | -14% | x | x | 5% | x | 0%
O=C(Cc1n[nH]c(=O)c2ccccc12)Nc1cccc(S(=O)(=O)N2CCCC2)c1
    1% | -23% | -14% | -14% | x | 3% | x | 2%
